# GLA inh pH 4.5 – qHTS Assay for Inhibitors of Human alpha-Galactosidase at pH 4.5. Alpha-galactosidase A (Homo sapiens), P06280. purified enzyme, 4-MU-alpha-Gal fluorescence, pH 4.5. activity change, negative = inhibition, % at 105 µM. 230,000 tested, under 10 active; inconclusive = small, poorly fitted or top-dose-only inhibition, or a rising curve; inactive = flat fitted curve, though single readings scatter; no compound was filed as active;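 also: 0% = full activity with enzyme and -100% = basal without enzyme; dose as in the result columns while the protocol names 77 µM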
# Target sequence (P06280 whole entry, looked up): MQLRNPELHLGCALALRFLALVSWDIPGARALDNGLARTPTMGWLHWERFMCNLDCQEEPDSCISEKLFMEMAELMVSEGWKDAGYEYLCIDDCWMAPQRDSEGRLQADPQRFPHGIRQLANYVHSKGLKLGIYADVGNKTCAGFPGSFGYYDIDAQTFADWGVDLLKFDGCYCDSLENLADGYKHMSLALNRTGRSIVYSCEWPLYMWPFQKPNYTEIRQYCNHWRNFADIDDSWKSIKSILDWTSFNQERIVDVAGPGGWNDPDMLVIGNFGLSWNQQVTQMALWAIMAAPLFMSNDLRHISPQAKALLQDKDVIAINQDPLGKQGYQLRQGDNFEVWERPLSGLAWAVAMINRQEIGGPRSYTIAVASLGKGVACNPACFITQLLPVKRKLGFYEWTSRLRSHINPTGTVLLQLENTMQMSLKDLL
# Rango-impB inh – qHTS Assay for Inhibitors of Rango (Ran-regulated importin-beta cargo) - Importin beta complex formation; 0.031% of 340,000 active; Rango CFP/YFP FRET sensor + importin beta, 45 min; Potency, µM (top dose mostly 92.2 µM), inactives show at the highest dose inhibition of complex formation; AID 540263, 2011; Importin subunit beta-1 (Homo sapiens), Q14974; active = rising FRET ratio curve, often small or poorly fitted; inconclusive = mostly compound fluorescence or quenching in the first reads; inactive = flat curves in all reads;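 also: potency is read from the fitted curve at half-maximal effect; 0% = DMSO wells and 100% = buffer wells lacking importin beta; nearly all actives have a fitted effect of over 15% in size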
#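 Inhibition scored from the CFP 486 nm/YFP 530 nm FRET ratio 45 min after adding 0.125 microM importin beta to 50 nM Rango biosensor preincubated 5 min with compound (room temperature, PBS with DTT, Tween-20, BSA). No-importin wells as positive control.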
# miR-21 FLuc – qHTS Assay for Modulators of miRNAs and/orActivators of miR-21; HeLa miR-21 FLuc reporter, luciferase, 48 h; Potency, µM (highest dose often 38.3 µM), for the others: at the top dose reporter change, positive = more light; 340,000 tested, under 10 active; active = well fitted rising curve with a large enough effect; inconclusive = small, poorly fitted or top-dose-only effect; inactive = no such curve, though single readings can be large or run the other way;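 also: % of control where 0% means no effect; miR-21 action dims this reporter so a rising signal means less miR-21 action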
#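 Using DMEM plus 10% FBS, HeLa miR-21-FLuc cells are incubated with test compounds (final up to about 40uM) for 48 hours; firefly luciferase signal is then imaged following reagent-mediated lysis.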
# Rango release inh – qHTS Assay for Inhibitors of RanGTP induced Rango (Ran-regulated importin-beta cargo) - Importin beta complex dissociation; Snurportin-1 (Homo sapiens) + GTP-binding nuclear protein Ran (Homo sapiens) + Importin …; Biochemical FRET Rango-importin beta, RanGTP-induced dissociation; Potency, µM (doses to about 46.1 µM), inactives show at the highest dose activity change, negative = inhibition; 0.071% of 340,000 active; AID 540253, 2011; active means falling FRET ratio curve, often poorly fitted, with flat reads before Ran was added; inconclusive means other falling curves, or compound fluorescence or quenching; inactive means flat or rising ratio curve;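 also: potency is read from the fitted curve at half-maximal effect; % of control where 0% means no effect; nearly all actives have a fitted effect of over 45% in size; -100% = wells without RanGTP and RCC1; the record marks most hits as doubtful in a second field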
#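 Rango FRET biosensor (snurportin-1 IBB flanked by N-terminal EYFP and C-terminal CFP10) at 0.1 uM, with 0.25 uM importin beta in PBS, 1mM DTT, 0.02% Tween-20, 0.1% BSA. 0.6 uM Ran, 2mM GTP and 0.2 uM RCC1 were then added for 45 min at room temperature. Inhibition read as loss of FRET rise.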
# An asterisk follows results filed as active; ? = inconclusive; . = no result given. Some of the compounds tested, so the mix of outcomes need not match the whole.
# Preview, six compounds:
GLA inh pH 4.5	Rango-impB inh	miR-21 FLuc	SMILES	Rango release inh
.	?	0.1%	Cc1ccc(NC(=O)C2CCN(S(=O)(=O)c3c(C)noc3/C=C/N(C)C)CC2)cc1	?
.	-0.8%	-1.0%	CCn1c(=O)c2cc(C(=O)NCC(OC)OC)sc2c2ccccc21	0.2%
-5.0	-0.1%	-1.0%	COc1ccc(S(=O)(=O)N2CCC(C(=O)N3CCN(c4ccccc4OC)CC3)CC2)cc1	12.7%
-0.6	0.4%	-0.9%	COC(=O)c1cc(=O)n(-c2ccc(C(F)(F)F)cc2)[nH]1	-6.4%
-0.9	4.2%	-2.5%	CCn1cc(C(=O)NCc2ccccc2OC)c(=O)c2ccc(C)nc21	-12.0%
.	-0.1%	0.7%	C=CCN(C(=O)c1csnn1)C(C(=O)NC1CCCCC1)c1ccccc1 (stereo not given)	-4.0%

# The list itself (from the top)
GLA inh pH 4.5	Rango-impB inh	miR-21 FLuc	SMILES	Rango release inh
.	?	0.1%	Cc1ccc(NC(=O)C2CCN(S(=O)(=O)c3c(C)noc3/C=C/N(C)C)CC2)cc1	?
.	-0.8%	-1.0%	CCn1c(=O)c2cc(C(=O)NCC(OC)OC)sc2c2ccccc21	0.2%
-5.0	-0.1%	-1.0%	COc1ccc(S(=O)(=O)N2CCC(C(=O)N3CCN(c4ccccc4OC)CC3)CC2)cc1	12.7%
-0.6	0.4%	-0.9%	COC(=O)c1cc(=O)n(-c2ccc(C(F)(F)F)cc2)[nH]1	-6.4%
-0.9	4.2%	-2.5%	CCn1cc(C(=O)NCc2ccccc2OC)c(=O)c2ccc(C)nc21	-12.0%
.	-0.1%	0.7%	C=CCN(C(=O)c1csnn1)C(C(=O)NC1CCCCC1)c1ccccc1 (stereo not given)	-4.0%
0.1	1.0%	-3.4%	Cc1ccc(C(=O)OCC(=O)Nc2ccc(N(C)C)cc2)cc1NC(=O)c1ccco1	11.9%
10.9	-0.8%	22.1%	CC(C)(C)c1ccccc1NC(=S)NC1CCCCC1	3.2%
-7.9	1.7%	.	COc1ccc(C2CC(=O)Oc3cc(C)c(Cl)c(C)c32)cc1 (stereo not given)	0.4%
-1.4	-0.5%	-15.7%	Cc1ccc(OCc2ccc(C(=O)NCC3CCCO3)cc2)cc1 (stereo not given)	-15.7%
-1.6	3.1%	-1.9%	CCc1ccc(N2C(=O)C3C(C2=O)N2CCCN2C3c2ccccc2)cc1 (stereo not given)	-9.4%
.	-1.2%	.	COc1ccc([C@H]2CC(=O)C=C(c3ccccc3Oc3ccccc3)C2)cc1	12.5%
.	-2.1%	1.7%	COc1ccc(NC(=O)c2cc(S(=O)(=O)N3CCOCC3)ccc2N2CCOCC2)cc1	-15.8%
1.9	3.8%	1.1%	c1ccc(Oc2cccc(NC3=NCCC3)c2)cc1	?
.	-1.2%	.	Cc1ccc(C(=O)N(C)CCOc2ccccc2)cc1S(=O)(=O)N1CCOCC1	0.4%
5.3	-0.8%	-7.4%	COc1ccc2[nH]c(=O)c(CN(C(=O)C3CCCO3)c3ccc(C)cc3)cc2c1 (stereo not given)	0.6%
8.4	-1.4%	1.2%	CCOC(=O)/C(=N\Nc1cc(Cl)ccc1Cl)N1CC(C)OC(C)C1 (stereo not given)	15.5%
.	2.2%	-26.2%	C=CCn1c(SCc2ccccc2)nc2c1c(=O)[nH]c(=O)n2C	10.2%
.	?	-7.0%	COc1ccc(/C=N/N(C)C2=NS(=O)(=O)c3ccccc32)cc1OC	-11.5%
.	-0.4%	.	CCN(CC(=O)Nc1c(F)cccc1F)C(=O)c1ccc(OCc2c(C)noc2C)cc1	12.1%

# The closing two compounds of the section above are carried over, then new ones follow.
GLA inh pH 4.5	Rango-impB inh	miR-21 FLuc	SMILES	Rango release inh
.	?	-7.0%	COc1ccc(/C=N/N(C)C2=NS(=O)(=O)c3ccccc32)cc1OC	-11.5%
.	-0.4%	.	CCN(CC(=O)Nc1c(F)cccc1F)C(=O)c1ccc(OCc2c(C)noc2C)cc1	12.1%
-3.6	?	-29.8%	Cc1sc2c(c1C)CN(Cc1ccncc1)CN2C(=O)c1ccco1	3.5%
.	3.5%	.	CC(=O)Nc1cc2oc3ccccc3c2cc1[N+](=O)[O-]	?
-8.9	3.2%	-3.9%	COc1ccc(F)cc1S(=O)(=O)N1CCN(Cc2ccc3c(c2)OCO3)CC1	22.2%
-1.8	-0.7%	-0.1%	O=C(c1ccco1)c1nc2c(n1O)CCCCC2	8.6%
3.2	-2.1%	-5.3%	CN1C(C)(C)CC(=NOC(=O)c2ccccc2)CC1(C)C	-5.1%
.	-1.5%	.	Cc1sc2nc(SCC(=O)Nc3cccc(C(=O)O)c3)[nH]c(=O)c2c1C	0.0%
.	-0.2%	.	O=C(CCNS(=O)(=O)c1ccccc1C(F)(F)F)Nc1ccncc1	1.9%
-5.8	1.1%	17.0%	Cc1onc(-c2ccccc2Cl)c1C(=O)N1CCN(c2cccc(Cl)c2)CC1	-10.9%
.	5.4%	3.8%	CC(C)(C)NS(=O)(=O)c1cc2c3c(c1)CCN3C(=O)CC2	5.0%
2.5	0.4%	-26.6%	O=C(NC(=S)NCC1CCCO1)c1ccccc1Br (stereo not given)	6.2%
.	-0.1%	2.6%	CC(C)NC(=O)C(c1ccc(F)cc1)N(Cc1ccco1)C(=O)CCC(=O)Nc1ccccn1 (stereo not given)	-17.0%
.	2.8%	.	COc1ccc(S(=O)(=O)N2CCCCC2)cc1NC(=O)Cn1c(=O)cnc2ccccc21	13.4%
9.8	-0.8%	2.1%	CC(SCCc1ccccn1)C(=O)O (stereo not given)	0.1%
1.5	0.8%	-10.0%	ON1C(c2ccc(Cl)cc2Cl)N(O)[C@H]2CCCC[C@H]21 (stereo not given in full)	22.6%
.	3.4%	.	Cc1ccc(NC(=O)CSc2nnc(Cc3csc(C)n3)o2)c(C)c1	-5.4%
.	-2.5%	0.2%	COCCN(C(=O)CCC(=O)Nc1cc(C)on1)C(C(=O)NC(C)(C)C)c1ccccc1Cl (stereo not given)	-6.7%
.	-4.0%	1.9%	COc1ccc(NS(=O)(=O)c2ccc3oc(=O)ccc3c2)cc1	-3.2%
-4.8	1.2%	1.3%	Cc1cc(C)cc(NC(=O)NCc2c(-c3ccccc3)noc2C)c1	-10.2%
.	1.0%	-4.8%	Cc1cc2oc(=O)c(CC(=O)NCCCO)c(C)c2c2occ(C(C)(C)C)c12	-1.2%
-0.3	-0.4%	-14.6%	O=C(Nc1ccccc1)N(CCc1nc2ccccc2[nH]1)C1CCCC1	-3.1%

# Gathered by group: the entries above containing a tert-butyl group (four)
GLA inh pH 4.5	Rango-impB inh	miR-21 FLuc	SMILES	Rango release inh
10.9	-0.8%	22.1%	CC(C)(C)c1ccccc1NC(=S)NC1CCCCC1	3.2%
.	5.4%	3.8%	CC(C)(C)NS(=O)(=O)c1cc2c3c(c1)CCN3C(=O)CC2	5.0%
.	-2.5%	0.2%	COCCN(C(=O)CCC(=O)Nc1cc(C)on1)C(C(=O)NC(C)(C)C)c1ccccc1Cl (stereo not given)	-6.7%
.	1.0%	-4.8%	Cc1cc2oc(=O)c(CC(=O)NCCCO)c(C)c2c2occ(C(C)(C)C)c12	-1.2%

# Following part
GLA inh pH 4.5	Rango-impB inh	miR-21 FLuc	SMILES	Rango release inh
-0.2	?	-4.3%	C=CCc1c(C)c(C#N)c2nc3ccccc3n2c1N1CCCCC1	?
-3.3	0.5%	-8.2%	COc1cc(C)nc(N2CCCC(C(=O)Nc3cccc(Cl)c3Cl)C2)n1 (stereo not given)	8.1%
.	0.8%	.	CCOc1ccc(OCCC(=O)N(CCC(C)C)c2c(N)n(Cc3ccccc3)c(=O)[nH]c2=O)cc1	21.6%
.	-1.6%	-0.1%	NC(=O)c1cc2ccccc2o/c1=N/NC(=O)c1cccc(Cl)c1	-1.0%
.	-0.3%	.	CN(C(=O)COC(=O)C12CC3CC(CC(Cl)(C3)C1)C2)C1(C#N)CCCCC1	0.5%
2.2	-2.2%	-0.2%	CCn1cnc2sc(C(=O)O)c(C)c2c1=O	-2.5%
.	?	-4.0%	COc1ccc(CCn2c(=N)c(C(=O)NCC3CCCO3)cc3c(=O)n4cccc(C)c4nc32)cc1OC (stereo not given)	-3.6%
.	-2.1%	.	CC(=O)Nc1ccc(NC(=O)C(C)Sc2n[nH]c(-c3ccc(C)cc3)n2)cc1 (stereo not given)	-14.3%
.	-2.9%	2.3%	O=C(NCCCN1CCCC1=O)c1cccc(S(=O)(=O)N2CCN(c3ccccc3)CC2)c1	-1.5%
0.5	0.4%	-1.1%	COc1ccccc1CNC(=O)C(NC(=O)c1ccc(C)cc1)C(C)C (stereo not given)	-0.7%
-5.3	-2.6%	6.4%	CCN(c1ccc(NC(=O)COC(=O)CCc2cc(OC)c(OC)c(OC)c2)cc1)C(C)C	-1.1%
.	0.0%	15.5%	COc1ccc(S(=O)(=O)N(CC(=O)NCCSc2ccccn2)c2ccccc2)cc1	0.9%
.	7.3%	-24.7%	Cc1ccc(OCCCN2CCOCC2)cc1	-0.3%
-4.8	6.3%	0.4%	Cc1cccc(NC(=O)C2CCCN2C(=O)OCC(C)C)c1C (stereo not given)	0.5%
-1.1	3.5%	-5.7%	COc1ccc2c(c1)cc(C(=O)O)n2C	2.6%
-3.4	2.3%	-4.9%	O=C(CN1CCN(c2ccc(F)cc2)CC1)OCc1ccccc1	-11.6%
.	3.5%	-0.3%	CC(=O)Nc1ccc(S(=O)(=O)N(C)CC(=O)OCC(=O)N2CCCCCC2)cc1	-11.4%
5.8	0.8%	-1.1%	Cc1cc(C)cc(C(=O)Nc2ccc(N3CCN(S(C)(=O)=O)CC3)cc2)c1	4.5%
-17.0	?	-34.6%	COc1ccc(NC(=O)c2onc(C)c2Cl)cc1OC	-15.3%
.	-0.2%	-25.3%	O=C(NCCSc1ccc(Br)cc1)c1ccc2nc[nH]c2c1	-3.6%

# More records follow.
GLA inh pH 4.5	Rango-impB inh	miR-21 FLuc	SMILES	Rango release inh
.	3.1%	0.3%	CCC(C(=O)N1CCOCC1)n1nc(C)c2c(C)n(-c3ccccc3)nc2c1=O (stereo not given)	6.9%
.	-0.6%	-6.9%	Cc1cc(-c2nnc(CCC(=O)NCC(C)c3ccccc3)o2)no1 (stereo not given)	-3.0%
5.4	4.9%	-1.8%	CCN(CC)S(=O)(=O)c1ccc(Cl)c(C(=O)Nc2nnc(C)s2)c1	-11.0%
.	0.5%	-2.8%	O=C(c1cccc(OC2CCN(Cc3cccc(OCCO)c3)CC2)c1)N1CCCC1	0.2%
.	0.9%	-51.4%	CC(=O)N1N=C(c2cccs2)CC1c1ccc(Br)cc1 (stereo not given)	-8.5%
0.6	-1.0%	-2.8%	On1nnc2ccc(C(F)(F)F)cc21	10.6%
.	-2.1%	.	Cc1cc(C(=O)COc2ccc(C#N)cc2)c(C)n1CC1CCCO1 (stereo not given)	-11.3%
6.1	-2.9%	-0.7%	COc1ccc(/C=C/C(=O)NCC(=O)N/N=C/c2cc(Br)ccc2OCc2ccccc2)cc1	-2.9%
3.6	-1.8%	7.4%	CCOc1ccc(NC(=O)N2CCC(c3nc4ccccc4o3)CC2)cc1	10.9%
5.0	-0.5%	-0.7%	NS(=O)(=O)c1ccc(CCNC(=O)c2ccc([N+](=O)[O-])cc2[N+](=O)[O-])cc1	-6.0%
4.7	-2.0%	-4.3%	CCCn1nc(C(=O)Nc2ccc(S(=O)(=O)Nc3ncccn3)cc2)c2ccccc2c1=O	-9.7%
-5.0	-3.8%	-4.6%	CC1CC(C)CN(C(=O)CCNS(=O)(=O)c2ccc3c(c2)CCC(=O)N3)C1 (stereo not given)	-10.4%
.	-3.0%	.	O=C(NCc1ccccn1)c1cccc(S(=O)(=O)Nc2ccccc2Cl)c1	-1.3%

# Source: PubChem BioAssay
